PrP UTR inh: inhibition of PrP 5' UTR reporter expression; inhibition, % (no concentration beside the values); 340,000 tested, 0.35% active; cell-based PrP 5' UTR mRNA reporter, plate reader; AID 488862;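 active = every replicate at 50% or more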;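 also: 0 = median of the neutral control wells; tested in H4 reporter cells; numbers are from one replicate; inactives centre near -14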
BJeLR viability: kills HRASV12-expressing BJeLR cells; 300,000 tested, 0.17% active; inhibition, % (no concentration beside the values); BJeLR (HRASV12) viability, CellTiter-Glo ATP luminescence, 48 h; reference of the scale not given here;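 active = replicate mean above 50%; inconclusive = above 50% but judged a plate artefact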;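 also: 50 nL library stock added to about 25 µL; numbers are from one replicate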
RN4220 kill: kills Staphylococcus aureus RN4220 | 330,000 tested, 0.33% active | AID 1259311 | inhibition, % (test concentration not listed) | S. aureus RN4220 growth, OD600, 16 h;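 active = z-score of -3 or lower and OD600 up to 0.18 on both plates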;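 also: plate controls were untreated cells for no effect and reference antibiotic for full effect; stock transfer was 100 nL into about 80 µL; one replicate is shown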
Mtb hypoxia rep: reduces hypoxia-regulated biosensor signal in M. tuberculosis | M. tuberculosis hypoxia-regulated fluorescent reporter, fluorescence | fluorescence inhibition, % (no concentration beside the values) | 300,000 tested, 0.1% active;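 active = 35 to 45% if threefold the growth effect, above 45% if 1.5-fold the growth effect; inactive = the rest, general growth blockers included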;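 also: wells of about 50 µL received 100 nL stock; 0% = vehicle wells and 100% = reference inhibitor wells; whole bacteria with a GFP reporter of the hypoxia response; strong numbers were not always called active; many hits fall short of the cut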
Bead autofluor: compound fluorescence in toxin protease inhibitor counterscreen. compound autofluorescence counterscreen, microsphere flow cytometry; hits give high values. fluorescence intensity (no concentration beside the values). 360,000 tested, 3.1% active. AID 624483;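 active = at least 3 SD above the mean of all compounds, about 16000 in these data; inconclusive = too few beads counted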;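 also: 100 nL of 1 mM stock went into each well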
ugtP null kill: kills S. aureus RN4220 lacking UgtP; S. aureus RN4220 ugtP deletion, OD600 growth, 16 h; some inactives read as strong as hits; growth inhibition, % (no concentration beside the values); 330,000 tested, 0.54% active;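 active = z-score under -3 and OD600 up to 0.15 on both plates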;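 also: plate controls were untreated wells for no effect and antibiotic for full effect; wells of about 80 µL received 100 nL stock; the first replicate is given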
Mtb hypoxia rep growth: further read-out of Mtb hypoxia rep, marked with its call; growth inhibition, %; measured here: M. tuberculosis growth (absorbance);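 0% = vehicle and 100% = reference antibiotic; read after six days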
* = called active by the depositor; u = inconclusive; x = no result given; & = joins results of further samples.

SMILES	PrP UTR inh	BJeLR viability	RN4220 kill	Mtb hypoxia rep	Mtb hypoxia rep growth	Bead autofluor	ugtP null kill
Cc1c(NS(=O)(=O)c2ccc(N(C)C3CCCCC3)c([N+](=O)[O-])c2)c(=O)n(-c2ccccc2)n1C	-20	-2	2.6	5	4	8131	7
Cc1ccc(N(CC(=O)NC2CCCCC2)C(=O)CCCC(=O)Nc2ccccn2)cc1	-21	-4	4.0	2	0	3749	5
COC(=O)c1cc(NC(=O)CC2Oc3ccccc3NC2=O)cc(C(=O)OC)c1 (configuration not stated)	-6	-7	2.9	-2	-2	3822	1
COc1cc(/C=C/C(=O)OCC(=O)c2ccc[nH]2)cc(OC)c1OC	-12	x	1.8	2	11	3766	-1
COc1cccc2sc(N(CCCN(C)C)C(=O)CCS(=O)(=O)c3ccccc3)nc12	-6	4	5.5	-7	-10	4726	-1
O=C(O)CN1C(=O)/C(=C/c2ccc(SCc3ccccc3)o2)SC1=S	-9	x	2.8	11	8	3179	2
Cc1ccc(NC(=O)CCC(=O)N/N=C/c2ccc(O)cc2O)cc1	-20	-8	x	x	x	3904	x
COc1cc(OC)c(OC)cc1/C=N/n1c(C)nc2ccccc2c1=O	13	1	x	x	x	4188	x
COc1ccc(NC(=S)N(CCCN2CCOCC2)C(C)c2cc3cccc(OC)c3o2)cc1 (configuration not stated)	-12	4	x	x	x	4851	x
CN1CCN(N=Cc2ccc(-c3ccc([N+](=O)[O-])cc3)o2)CC1	x	x	5.2	4	4	x	17
CSc1nc2ccc(NC(=O)NC(=O)c3c(F)cccc3F)cc2s1	-36	-1	1.3	-7	-10	5969	2
COc1ccc2c(CC(=O)N3CCc4cc(OC)c(OC)cc4C3)coc2c1	-20	-6	3.1	16	2	6429	-6
CCc1nc(SCC(=O)Nc2ccc(N(C)C)cc2)c2ccccc2n1	-11	-6	3.2	15	16	3170	12
CC(=O)Nc1ccc(C2NC(=S)N(c3ccccc3C(F)(F)F)C(C)=C2C(=O)N2CCOCC2)cc1 (configuration not stated)	-7	14	-5.4	-7	5	4312	-1
CCOC(=O)c1nnn2c1nc(N(CC)CC)c1ccccc12	3	2	2.6	8	15	x	0
CC(CC(=O)Nc1ccc(C)c(Cl)c1)=NNC(=O)c1ccncc1	x	x	4.7	x	x	x	-7
O=C(N/N=C/C(Br)=C/c1ccccc1)C(O)c1ccccc1 (configuration not stated)	-25	7	x	x	x	3143	x
Cc1cc(/C=N/NC(=O)c2nn(C)cc2Cl)c(C)n1-c1cccc(Br)c1	6	-4	x	x	x	2083	x
O=C(NCCc1ccc(C(F)(F)F)cc1)c1ccc(Cl)nc1	-15	-3	1.7	11	11	3717	12
Nc1nonc1-n1nnc(C(=O)c2ccccc2)c1-c1ccccc1	-29	-2	2.8	x	x	2181	23
CCOC(=O)c1c(C)[nH]c(C(=O)COC(=O)Cn2cc(C(F)(F)F)ccc2=O)c1C	-11	x	3.8	11	10	7960	9
CN1CCN(c2ccc(-c3cccc(NC(=O)COc4ccccc4)c3)nn2)CC1	-116	-4	0.2	2	6	6584	2
CC1(C)NC(C)(C)c2nonc2/C1=N\O	-17	-2	x	x	x	8799	x
CCN(CC(=O)Nc1ccc(NC(C)=O)cc1)C(=O)c1c(C)nn(Cc2ccc(C)cc2)c1Cl	-2	x	6.1	0	-4	2965	8
O=C(c1ccccc1)N1N=C(c2ccccc2)CC1c1ccccc1O (configuration not stated)	-19	-1	-2.8	5	-5	4855	-19

As entered above:
Entry of `CC(CC(=O)Nc1ccc(C)c(Cl)c1)=NNC(=O)c1ccncc1` in RN4220 kill: 4.7
Entry of `Cc1cc(/C=N/NC(=O)c2nn(C)cc2Cl)c(C)n1-c1cccc(Br)c1` in BJeLR viability: -4
Entry of `CSc1nc2ccc(NC(=O)NC(=O)c3c(F)cccc3F)cc2s1` in Mtb hypoxia rep growth: -10
Entry of `CN1CCN(N=Cc2ccc(-c3ccc([N+](=O)[O-])cc3)o2)CC1` in ugtP null kill: 17
Entry of `CC(=O)Nc1ccc(C2NC(=S)N(c3ccccc3C(F)(F)F)C(C)=C2C(=O)N2CCOCC2)cc1` (configuration not stated) in Mtb hypoxia rep growth: 5

Continued:
SMILES	PrP UTR inh	BJeLR viability	RN4220 kill	Mtb hypoxia rep	Mtb hypoxia rep growth	Bead autofluor	ugtP null kill
CC(Oc1ccccc1)C(=O)Nc1cccc(F)c1 (configuration not stated)	-14	-3	8.6	4	7	4312	6
O=C(CC1Oc2ccccc2NC1=O)NC1CC1 (configuration not stated)	-4	3	-0.5	x	x	6070	2
CC(=O)NC(=S)Nc1cccc([N+](=O)[O-])c1	8	-3	-3.9	-1	8	3434	-15
CCOC(=O)c1cn2nc(Oc3ccc(C(=O)OC)cc3)ccc2n1	-29	-8	2.0	7	-3	u	7
COc1ccc(CNC(=O)CSc2nnc(Cn3nnc4ccccc43)n2C)cc1	-18	4	-1.1	-9	6	10492	1
O=C(Nc1ccc2c(c1)OCCO2)c1cc2ccccc2o1	-8	6	4.7	9	-4	4153	-2
CCCCn1c(N)c(N(CCOC)C(=O)c2ccc(OCc3c(C)noc3C)cc2)c(=O)[nH]c1=O	-9	x	1.9	-2	9	6268	2
CCN(CC)S(=O)(=O)c1ccc(NC(=O)c2cnc(C)cn2)cc1	-16	-10	2.3	0	1	2913	8
Cc1ccccc1-n1c(Cn2c(=O)sc3ccccc32)nnc1SCC(=O)NCC1CCCO1 (configuration not stated)	-23	x	-1.3	x	x	4266	-2
CC(C)N(Cc1nc(-c2ccccc2)no1)C(=O)Cc1ccccc1	-20	6	7.2	2	6	5576	9
CC(=O)c1cccc(N2C(=NC(=O)C3CCCCC3)SC3CS(=O)(=O)CC32)c1 (configuration not stated)	-31	5	2.3	1	5	5114	-2
CN(c1ccc(OCC(=O)OCC(=O)Nc2ccc(F)cc2)cc1)S(=O)(=O)c1ccc(Cl)cc1	-12	7	-4.5	3	-2	7582	-2
CCCCSCCCNC(=O)CS(=O)Cc1nc(-c2cccc(C)c2)oc1C (configuration not stated)	-22	-6	0.4	9	6	7816	-11
CC(C)Oc1ccc(C(=O)OCC(=O)NC2CCCCCC2)cc1	-7	x	-1.2	2	7	8724	4
COc1ccc(CN2CCC(Cc3ccccc3)CC2)c(C)c1C	-16	6	-2.0	-2	13	3422	-3
CC(C)NC(=O)C1CCCN(S(=O)(=O)c2ccc(-n3cnnn3)cc2)C1 (configuration not stated)	6	2	0.0	2	-7	16890*	0
CC(=O)Nc1ncc(N=Nc2cccc(C(F)(F)F)c2)s1	-36	-10	1.6	-3	-5	4144	5
Cc1c(C(=S)Nc2ccccc2)cnn1-c1ccccc1	-65	7	2.9	14	6	1983	2
COc1ccc(C=NNC(=O)c2ccc(-c3ccccc3)cc2)cc1O	x	x	9.8	6	0	x	-5
COc1ccc(NC(=O)c2ccc(C)cc2)c(OC)c1	-103	13	20	16	8	1789	13
COc1ccc(C2(C(=O)NCc3ccccc3Cl)CCOCC2)cc1OC	2	-14	2.7	3	2	1949	2
CC1CCN(C(=O)COc2ccc(S(=O)(=O)N3CCOCC3)cc2)CC1	-17	-4	-1.3	1	-6	5398	4
[N-]=[N+]=NCCN1CCN(Cc2ccccc2)CCC1=O	-22	-2	-1.0	-3	-7	4051	-4
CSC1=C(C#N)C(c2ccccc2Cl)C(C(C)=O)=C(C)N1 (configuration not stated)	1	-1	6.0	13	1	6198	6
COc1ccc(-c2nn(CCC#N)cc2C=NO)cc1OC	x	x	6.1	1	12	x	16
SMILES	PrP UTR inh	BJeLR viability	RN4220 kill	Mtb hypoxia rep	Mtb hypoxia rep growth	Bead autofluor	ugtP null kill
COC(=O)C1(C)NC(c2ccco2)C2C(=O)N(c3ccc(C)cc3)C(=O)C21 (configuration not stated)	-11	-5	2.4	6	7	8813	-2
C/C(=N\N=C(/N)SC1CC(=O)N(c2ccccc2)C1=O)c1cccs1 (configuration not stated)	-21	6	x	x	x	7137	x
Nc1ccn(C2CC(O)C(CO)O2)c(=O)n1 (configuration not stated)	-2	-9	7.0&1.8	8&-1	10&-3	5430	1&-4
COC(=O)c1ccc(OC(=O)C2CC(=O)N(c3cccc(C)c3)C2)cc1 (configuration not stated)	-17	2	2.5	-1	-4	16757*	3
CCCCc1ccc(S(=O)(=O)NNC(=S)NCc2ccco2)cc1	-2	-1	x	x	x	2282	x
COCCN(CC(=O)Nc1cccc(C)c1C)C(=O)C1(c2ccccc2)CC1	-20	x	3.9	6	6	7576	4
Cc1cccc([C@@H]2[C@@H]3C(=O)N(Cc4ccccc4)C(=O)[C@@H]3[C@]3(Cc4ccccc4)C(=O)N(c4ccccc4)C(=O)N23)c1	-4	4	x	x	x	3652	x
O=C(Nc1ccc(F)cc1)C(c1ccccc1)N1CCN(S(=O)(=O)c2ccccc2)CC1 (configuration not stated)	-21	9	-2.3	8	7	2621	13
COC(=O)C(NC=O)C(O)(Cc1ccccc1)C(F)(F)F (configuration not stated)	-18	x	9.0	-4	3	3457	5
Cc1ccc(C(=O)NC2CCN(CC(=O)Nc3cccc([N+](=O)[O-])c3)CC2)cc1	1	7	4.4	10	0	4060	1
COc1ccc(N(CC(=O)N/N=C(\C)CCc2ccccc2)S(=O)(=O)c2ccc(C)cc2)cc1	-11	4	x	x	x	4795	x
CN1C(=O)c2ccc(C(=O)NCc3ccccn3)cc2C1=O	-16	-11	1.1	3	8	5826	4
NC(=O)CN1C(=O)C(=O)N(Cc2ccccc2)C1=O	-15	3	1.6	0	6	3906	3
CC1CCCN(CCC(=O)Nc2ccc3c(c2)CCC3)C1 (configuration not stated)	-12	4	1.3	x	x	3410	7
CCc1ccc(C2c3[nH]c4ccccc4c3CCN2C(=O)c2ccc(=O)n(C)n2)cc1 (configuration not stated)	-4	-4	-3.5	-1	5	4768	72
CC1CCN(C(=O)C2CCN(S(=O)(=O)c3cnc[nH]3)CC2)CC1	-28	-1	2.8	x	x	3767	7
NC(CCCCCP(=O)(c1ccccc1)c1ccccc1)C(=O)O (configuration not stated)	x	9	0.3	0	-8	x	1
Cc1sc2nc(SCC(=O)NCCO)n(C)c(=O)c2c1C	5	-1	0.4	-3	0	21991*	-4
O=C(Nc1ccc(N2CCCCC2)cc1)c1ccc2c(c1)OCCO2	-62	4	8.8	6	-4	23082*	-1
O=C(Nc1ccccc1C(=O)O)c1cc(S(=O)(=O)N2CCOCC2)cs1	-19	8	0.8	-1	6	2593	2
Cc1cc(C)nc(Nc2ccc(N3CCOCC3)cc2)n1	7	-4	2.7	x	x	1565	6
Cc1c(C(=O)Nc2ccccc2)cn2c(nc3ccccc32)c1C#N	-3	-19	2.5	12	3	1996	20
O=C(N/N=C/c1cc(Br)ccc1OC(=O)c1ccc(Br)cc1)c1ccncc1	2	4	x	x	x	6243	x
Cc1ccccc1C(=O)NNC(=O)C1CCN(C(=O)Nc2ccccc2)CC1	-11	-6	1.4	-7	-3	u	1
COc1ccc(C(=O)C2CCCN(C(=O)c3cccc(Cl)c3F)C2)cc1OC (configuration not stated)	-27	2	5.3	6	4	5780	11
SMILES	PrP UTR inh	BJeLR viability	RN4220 kill	Mtb hypoxia rep	Mtb hypoxia rep growth	Bead autofluor	ugtP null kill
COC(=O)Cn1c(=O)c(C(=O)CCl)c(N)n(Cc2ccccc2)c1=O	-24	41	-0.8	14	27	3963	-1
CCOP(=O)(OCC)C(NC(=O)c1ccc(OC)c(OC)c1)c1ccccc1 (configuration not stated)	0	-11	1.4	2	2	5134	2
CCOC(=O)c1cc(-c2ccc(OC(F)F)cc2)nc2c1c(=O)[nH]c(=O)n2C	-18	-1	x	x	x	2428	x
Cc1ccc2c(COC(=O)c3ccccc3Cl)cc(=O)oc2c1	-62	1	-2.6	-6	1	3164	-5
CC1CN(C(C)CO)C(=O)c2cc(NC(=O)c3ccncc3)ccc2OC1CN(C)C(=O)Nc1ccc(C(F)(F)F)cc1 (configuration not stated)	x	x	4.6	1	4	x	-1
Cc1nnc(SCCn2c(N(C)Cc3ccccc3)nc3c2c(=O)n(C)c(=O)n3C)s1	-4	12	1.1	3	8	7965	4
Cc1ccc(C(=O)Nc2ccncc2)cc1[N+](=O)[O-]	-48	0	-0.4	19	5	3434	8
COc1ccc(OC)c(N/C=C2/CCCCC2=O)c1	0	3	6.0	2	4	21967*	-11

In another format: results already given
Molecule,PrP UTR inh,BJeLR viability,RN4220 kill,Mtb hypoxia rep,Mtb hypoxia rep growth,Bead autofluor,ugtP null kill
CC1CN(C(C)CO)C(=O)c2cc(NC(=O)c3ccncc3)ccc2OC1CN(C)C(=O)Nc1ccc(C(F)(F)F)cc1 (configuration not stated),x,x,4.6,1,4,x,-1
Cc1nnc(SCCn2c(N(C)Cc3ccccc3)nc3c2c(=O)n(C)c(=O)n3C)s1,-4,12,1.1,3,8,7965,4

Screens from PubChem.
